RGS16-Gao HTS: modulators of RGS16 binding to Galphao, primary screen, biochemical, human proteins, multiplexed bead flow cytometry; Regulator of G-protein signaling 16 (Homo sapiens) + Guanine nucleotide-binding protein …; bead-based flow cytometry RGS16-Galphao binding, fluorescence; actives lie on both sides; binding response (% of control), % at 10 µM; 220,000 compounds, 0.38% hits;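 active means below 25% or above 175%, edge rows of some plates excepted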;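 further: Galphao activated by GDP with aluminum fluoride before binding; 100% = wells without compound and 0% = beads without RGS; some results beyond the cut were filed as inactive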
Insulin prom inh: inhibitors of insulin promoter-driven GFP, primary screen, imaging, TRM-6 cells (human fetal islet line), eGFP reporter, cell count; 130,000 compounds, 0.9% hits; inhibition, % at 2 µM; reporter expression induced with tamoxifen;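 active means inhibition above the mean plus 3 SD, with well images judged a real hit on visual review, cut at about 60% in these data, passing the limit was not always enough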
PKD1 kinase inh: inhibitors of human PKD1 kinase, biochemical, fluorescence polarization; inhibition, %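 (about 10 µM by stock and volumes)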; 200,000 compounds, 0.056% hits; PKD1 kinase fluorescence polarization assay; Serine/threonine-protein kinase D1 (Homo sapiens), Q15139; AID 797, 2007;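 active means inhibition of 50% or more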;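 further: controls were vehicle for no effect and a reference inhibitor for full effect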
Target sequence (Q15139 whole entry, looked up): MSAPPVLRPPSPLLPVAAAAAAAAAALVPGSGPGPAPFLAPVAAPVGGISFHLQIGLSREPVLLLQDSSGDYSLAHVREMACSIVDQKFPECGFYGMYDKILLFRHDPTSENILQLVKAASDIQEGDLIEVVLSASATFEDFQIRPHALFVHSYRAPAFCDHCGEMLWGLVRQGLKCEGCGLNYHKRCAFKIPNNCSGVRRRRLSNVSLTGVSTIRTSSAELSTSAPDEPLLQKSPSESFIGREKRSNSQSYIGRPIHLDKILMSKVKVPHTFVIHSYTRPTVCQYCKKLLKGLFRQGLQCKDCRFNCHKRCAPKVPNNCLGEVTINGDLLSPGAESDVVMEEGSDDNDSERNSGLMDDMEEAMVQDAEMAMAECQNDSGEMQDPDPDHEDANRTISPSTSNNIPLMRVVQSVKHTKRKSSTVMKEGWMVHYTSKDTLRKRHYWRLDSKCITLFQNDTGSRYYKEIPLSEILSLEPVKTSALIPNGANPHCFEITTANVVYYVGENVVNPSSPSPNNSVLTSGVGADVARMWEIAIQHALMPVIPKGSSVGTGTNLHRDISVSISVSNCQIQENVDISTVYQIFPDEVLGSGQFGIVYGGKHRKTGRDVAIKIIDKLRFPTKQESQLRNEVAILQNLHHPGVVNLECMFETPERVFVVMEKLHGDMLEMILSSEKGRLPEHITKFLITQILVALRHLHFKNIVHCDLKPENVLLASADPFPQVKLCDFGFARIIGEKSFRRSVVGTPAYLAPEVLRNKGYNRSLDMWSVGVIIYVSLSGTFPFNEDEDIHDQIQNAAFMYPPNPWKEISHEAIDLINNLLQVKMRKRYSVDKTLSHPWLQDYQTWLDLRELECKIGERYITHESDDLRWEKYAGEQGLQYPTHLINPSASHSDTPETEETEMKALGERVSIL
GALR2 ag: GALR2 receptor agonists, primary screen, cell-based; GALR2-expressing cells, agonist activation read-out; 140,000 compounds, 0.48% hits; activation, %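 (tested at 5 µM)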; Galanin receptor type 2 (Homo sapiens), O43603; AID 803, 2007;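 active means above mean plus 3 SD of all compounds, about 5% in these data, not always enough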;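 further: 0% = vehicle buffer wells and 100% = reference agonist at full effect; tested in CHO reporter cells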
HSV augment: enhancers of HSV replication in host cells, fold increase, host cell viability. 220,000 compounds, 0.005% hits. HSV replication augmentation in cells. maximum fold increase. AID 1956, 2009;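 active means peak rise of 1.5-fold or more in the series; tested in PC3 cells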;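 further: first round at 10 µM; read as green reporter fluorescence; hits show the peak of a series up to 25 µM; 1 = signal of infected wells without compound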
Insulin prom inh cell count: recorded beside Insulin prom inh, whose call it bears; normalized cell count, %; measured here: cell count, toxicity; reference of the scale not given here;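 cells exposed to compound for 48 h; stained nuclei by imaging scaled within each plate; lower means fewer cells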
HSV augment primary fold: recorded beside HSV augment, whose call it bears; fold increase; compound at 10 µM; measured here: primary screen fold increase 10 uM; tested in PC3 cells;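 GFP signal in the first replicate; 1 = infected wells without compound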
* marks the source's active call; other numbers are inactive results; i = inactive; . = not tested or not shown.

The first two compounds as a preview:
structure	RGS16-Gao HTS	HSV augment	PKD1 kinase inh	Insulin prom inh cell count	GALR2 ag	Insulin prom inh	HSV augment primary fold
COc1ccc(CC(=O)O/N=C(\N)c2ccc(C)cc2)cc1	98.1	i	.	.	.	.	1.05
Cc1ccc2occ(/C=N/O)c(=O)c2c1	97.6	i	0.3	111.0	-0.5	11.6	1

The whole of this part, from the start:
structure	RGS16-Gao HTS	HSV augment	PKD1 kinase inh	Insulin prom inh cell count	GALR2 ag	Insulin prom inh	HSV augment primary fold
COc1ccc(CC(=O)O/N=C(\N)c2ccc(C)cc2)cc1	98.1	i	.	.	.	.	1.05
Cc1ccc2occ(/C=N/O)c(=O)c2c1	97.6	i	0.3	111.0	-0.5	11.6	1
COc1ccc(CCNC(=O)c2c(N)no[n+]2[O-])cc1OC	106.9	i	0.6	84.6	.	-54.5	0.94
Cc1ccc(Nc2cc(C)nc3c(C)ccc([N+](=O)[O-])c23)cc1	108.7	i	-2.0	161.4	1.9	-69.4	0.99
Cc1cc(C(=O)Nc2cccc(C(=O)O)c2)c(C)o1	100.2	i	-5.3	166.2	-0.4	18.9	0.97
O=C(c1ccccc1F)N(Cc1cccnc1)Cc1cc2cc3c(cc2[nH]c1=O)OCCO3	90.9	i	-2.0	77.4	.	20.0	0.9
CSC1=NCCN1S(=O)(=O)c1ccc2ccccc2c1	101.8	i	-2.4	92.5	.	30.8	0.96
Cc1c(NC(=O)COC(=O)C23CC4CC(CC(Br)(C4)C2)C3)c(=O)n(-c2ccccc2)n1C	106.2	i	-2.4	64.3	.	-63.6	1.05
COc1cccc(CNC(=O)CSc2ccc(-c3cccs3)nn2)c1	104.1	i	7.0	132.8	.	-77.8	1.02
O=[N+]([O-])c1ccccc1/C=C/C=N/n1c(-c2ccccc2)n[nH]c1=S	105.5	i	3.0	88.8	-2.6	21.4	0.9
O=C(C1CCC1)N1CCC(c2nc3c(nnn3Cc3c(F)cccc3Cl)c(=O)[nH]2)CC1	102.8	i	5.2	.	-1.3	.	0.85
CCOCCCNC(=S)N1CCN(CC)CC1	102.7	i	0.6	94.7	.	-65.0	1.02
O=C(Oc1c(-c2ccccc2)c(=O)n2c3c(cccc13)CC2)c1ccco1	100.6	i	.	.	.	.	1.02
C=COCCNC(=S)Nc1cccc(Cl)c1	108.8	i	-2.9	145.8	.	-61.1	0.9
Cc1cc(C(=O)CSc2nnc(N)s2)c(C)n1-c1c(C)n(C)n(-c2ccccc2)c1=O	84.1	i	2.7	146.0	-2.0	26.7	0.97
Cc1ccc(S(=O)(=O)NCCCN2CCOCC2)c(C)c1	103.6	i	-8.6	117.0	-0.4	-9.7	0.99
CCc1cc(C(=O)Nc2cc(S(=O)(=O)N(C)C)ccc2C)sc1C	101.6	i	0.1	.	.	.	0.87
Cc1cc(N2CCCC2)c(F)cc1/C=C\[N+](=O)[O-]	93.4	i	3.4	.	.	.	1.02
Cc1ccc(C2=NNC3(CCOC(C)(C)C3)S2)cc1 (configuration not stated)	99.5	i	-8.2	.	.	.	0.99
O=C(CCS(=O)(=O)c1ccc(Br)cc1)N1CCN(c2ccc(Cl)cc2)CC1	106.0	i	2.9	154.7	-3.7	-37.1	0.93
Oc1ccc(C2=NNC(=NCc3ccc4c(c3)OCO4)SC2)c(O)c1	72.9	i	1.3	73.2	-0.4	-14.3	0.72
COc1cccc(NS(=O)(=O)c2ccc3[nH]cc(C(=O)NCCC(C)C)c(=O)c3c2)c1	104.6	i	-11.9	.	0.1	.	1.06
Cc1cccc(N2CCN(C(=S)c3ccccc3)CC2)c1	105.1	i	2.4	.	.	.	1.1
O=c1c2cc(NC(=S)NC3CCCCC3)ccc2nc2n1CCCCC2	100.0	i	1.5	.	.	.	0.83
O=C(c1cc2ccccc2c(=O)o1)N1CCCCCC1	100.7	i	-0.2	98.0	-0.3	-28.6	0.96
O=C(NC(=S)Nc1ccc(S(=O)(=O)Nc2ccccc2)cc1)C1CC1	104.9	i	-2.4	.	.	.	1.05
CC(NC(=O)Cn1ncc(Cl)c(Cl)c1=O)C12CC3CC(CC(C3)C1)C2 (configuration not stated)	104.5	i	-1.3	30.7	-0.7	-29.0	0.58
CCCC(=O)N=c1sc2c(OC)ccc(OC)c2n1C	100.4	i	.	.	.	.	0.91
CCOC(=O)c1nc(SC)n(C)c1C(=O)OCC	96.2	i	.	.	.	.	0.91
COc1ccc(CC(=O)n2c(CC#N)nc3ccccc32)cc1OC	102.4	i	-3.0	.	-1.6	.	1.13

(cont.)
structure	RGS16-Gao HTS	HSV augment	PKD1 kinase inh	Insulin prom inh cell count	GALR2 ag	Insulin prom inh	HSV augment primary fold
COC(=O)c1sccc1-c1ccc(C(=O)Nc2cccc(Cl)c2)o1	96.2	i	-1.3	42.4	-3.4	-80.0	0.51
c1ccc(COc2ccc(OCCCN3CCCCC3)cc2)cc1	50.8	i	-5.6	73.7	-1.1	-60.7	1.02
NS(=O)(=O)c1ccc(N/N=C/c2ccc3c(c2)OCO3)c([N+](=O)[O-])c1	104.3	i	-8.8	85.5	.	-76.5	0.93
Cc1ccc(C(=O)Nc2ccc(CN3CCS(=O)(=O)CC3)cc2)cc1C	105.2	i	.	.	.	.	1.12
CCOC(=O)N1CCN(S(=O)(=O)c2c(C)nn(C)c2C)CC1	112.1	i	-8.7	.	-1.5	.	1.03
CCN(CC(=O)NC(C)C)Cc1nc2sc3c(c2c(=O)[nH]1)CCC3	112.1	.	-2.9	92.5	0.8	7.7	.
CSc1nnc(CNS(=O)(=O)c2ccc(Cl)cc2)n1C	93.2	i	-7.5	131.0	.	11.8	1.05
Cn1c(Cn2c(=O)sc3ccccc32)nnc1SCc1ccccn1	102.6	i	9.0	94.0	-1.8	14.3	1.03
Cc1nc2ccc(S(=O)(=O)NC(C(=O)Nc3nc4ccc(Cl)cc4s3)C(C)C)cc2s1 (configuration not stated)	106.1	i	-5.7	.	-0.8	.	0.75
Fc1ccc(C2CCCCN2Cc2nc(CC3CC3)no2)cc1 (configuration not stated)	113.1	i	0.0	.	.	.	0.91
Cc1cc(N2CCN(C3CCCCC3)CC2)nc2cccc(O)c12	100.1	i	-9.7	.	-0.1	.	0.81
O=C(Nc1ccc(Cl)cc1)c1cccs1	111.4	i	0.6	159.6	0.3	25.7	0.91
Cc1ccc(C)c(N2CCN(C(=O)CCCn3c(=S)[nH]c4cc5c(cc4c3=O)OCO5)CC2)c1	104.4	i	-1.5	112.7	1.6	-10.0	0.87
COc1cc(-c2nc3ccc(C)cn3c2Nc2ccc3c(c2)OCCO3)ccc1O	105.7	i	-2.5	116.7	-1.5	33.3	0.92
Cc1ncc([N+](=O)[O-])n1CCOC(=O)NC(NCc1cccnc1)C(Cl)(Cl)Cl (configuration not stated)	105.5	i	-0.1	.	-1.1	.	1.05
O=C(CO/N=C/c1ccc(OC(F)F)cc1)NC1CCCCCC1	96.1	i	-1.6	.	.	.	1.04
CC1CCCCN1C(=O)c1cc(Cl)ccc1[N+](=O)[O-] (configuration not stated)	100.8	i	-11.0	137.8	-1.2	-33.3	1.02
CCC(CC)C(=O)N(c1ccc(F)cc1)C1C=CS(=O)(=O)C1 (configuration not stated)	94.4	i	-9.3	65.8	-4.1	-21.4	0.86
Cn1c(NNC(=O)/C=C/c2ccc3c(c2)OCO3)cc(=O)n(C)c1=O	112.2	i	.	.	.	.	0.88
COc1ccc(-c2cc(C(F)(F)F)n3nc(N)nc3n2)cc1	57.7	i	-0.8	145.8	4.0	-25.0	0.98
Cc1ccc(-c2csc(=Nc3cccnc3)n2CCCN2CCCC2=O)cc1C	109.3	i	-1.0	.	0.1	.	1.01
CCCc1cnc(N2CCN(C(=S)NC)CC2)nc1	100.1	i	.	.	.	.	0.99
CSc1nc2ccc(S(=O)(=O)N3CCCCC3)cc2s1	107.0	i	-0.2	109.5	-1.3	20.8	0.93
Cc1ccc(NC(=S)Nc2cc(C)on2)cc1	102.3	i	.	.	.	.	0.8
COc1ccc(Cl)cc1S(=O)(=O)n1ccnc1C(C)C	108.4	i	-3.7	.	-1.9	.	0.97
Cc1ccccc1C(=NCCCN(C)C)c1ccccc1C	102.0	i	-4.2	96.6	-1.3	-14.8	0.87
Nc1nnc(Cc2cccc(Br)c2)s1	106.8	i	.	.	.	.	0.96
O=C(c1ccc(Br)s1)N1CCN(Cc2ccc3c(c2)OCO3)CC1	96.2	i	-2.9	78.0	-2.3	69.2	0.92
CCc1cccc2c(C#N)cn(CC(=O)NCc3ccco3)c12	92.2	i	0.6	136.2	-1.6	-74.1	0.89
Cn1c(=O)c2cc(S(=O)(=O)Nc3ccc4c(c3)OCO4)ccc2n(C)c1=O	132.1	i	-7.5	81.6	-0.8	8.1	0.92

Further results:
structure	RGS16-Gao HTS	HSV augment	PKD1 kinase inh	Insulin prom inh cell count	GALR2 ag	Insulin prom inh	HSV augment primary fold
COc1ccc2ccccc2c1CNCCCN1CCOCC1	115.3	i	-4.6	72.7	.	6.7	1.14
Cc1ccc(-c2csc(NC(=O)c3cccc(N4C(=O)CCC4=O)c3)n2)o1	104.8	i	8.2	.	-2.2	.	0.87
Cc1ccc(C)c(Cn2c(=O)c3c(nc4n3CCN4Cc3ccco3)n(C)c2=O)c1	101.8	i	-9.3	.	-0.1	.	0.97
O=C(NC1CCCCCC1)C1CCN(S(=O)(=O)c2cccc3cccnc23)CC1	102.5	i	-7.1	.	0.3	.	0.93
CC(C)c1ccc(OCc2nc(-c3ccccn3)no2)c(Br)c1	99.7	i	2.3	.	-3.8	.	0.943
NC(=O)Nn1c(CCC(=O)O)ccc1-c1ccc(Br)cc1	100.3	i	-4.5	116.7	-0.6	6.2	0.86
Cc1cccc(NC(=O)CSc2nc3nc4c(cc3c(=O)n2-c2ccccc2)CCCC4)c1	103.9	i	-3.5	120.0	3.3	6.1	0.9
COc1ccc(-c2coc3cc(OC)cc(O)c3c2=O)cc1	101.0	.	-2.5	198.8	-0.9	40.5	.
O=C(Nc1ccc(-c2noc(-c3cccs3)n2)cc1)c1cccnc1	207.6	i	-7.6	177.8	-0.8	-48.0	0.7
Cc1noc(/C=C/c2ccco2)c1S(=O)(=O)N1CCC(C(=O)Nc2ccc(Cl)cn2)CC1	97.3	i	0.1	88.0	-1.3	16.7	0.97
O=C(O)c1cccc(NN=C2c3ccccc3-c3ccccc32)c1	99.9	i	-5.3	.	.	.	0.92
O=P(CCC(F)(F)F)(CCC(F)(F)F)CCC(F)(F)F	106.1	i	1.6	112.1	-4.4	18.9	1
Cn1nnnc1SCC(=O)Nc1c(Cl)cccc1Cl	116.5	.	1.3	89.4	-1.2	-24.2	.
COc1ccccc1CN(CC(=O)NCc1ccco1)C(=O)CNS(=O)(=O)c1ccc(C)cc1	99.0	i	-5.8	98.1	-1.4	-57.6	0.82
COc1cccc(CC(NC(C)=O)C(=O)NC2CCN(c3c(Cc4ccccc4)c(C)nc4ncnn34)CC2)c1 (configuration not stated)	93.1	i	2.8	103.8	-3.3	-11.1	0.82
O=[N+]([O-])c1cc(/C=N/N2CCCCC2)ccc1Cl	96.3	i	-3.9	.	.	.	1.11
O=C1/C(=C/c2cccs2)SC(=S)N1c1ccccc1	85.8	i	-9.4	102.8	0.1	11.6	0.89
O=C(CCNC(=O)c1ccccc1)OCN1C(=O)c2ccccc2C1=O	108.1	i	-3.9	151.5	-0.9	13.9	1.05
O=C(Nc1ccc2c(c1)OCO2)c1ccc(Cl)nc1	98.3	i	3.4	62.1	-2.1	34.4	0.98
CC1(C)CC2(CCCN(CC(O)(c3ccccc3)c3ccccc3)C2)CCO1 (configuration not stated)	112.4	i	.	.	.	.	1.21
Cc1ccc(C(c2nnnn2CC2CCCO2)N2CCN(C(=O)c3ccco3)CC2)cc1 (configuration not stated)	98.7	i	3.7	63.6	-2.2	7.1	0.68
COc1cccc(CNc2nc3ccc(C)cc3n3cnnc23)c1	104.8	i	.	.	.	.	1.06

No enrichment for hits (roughly 1.3% active in at least one column).
